Sa ugtP lethal – growth inhibition of ugtP-null S. aureus, primary screen, RN4220 ugtP deletion, OD600 | 330,000 tested, 0.54% active | AID 1259309, 2017 | 16 h; some inactives read as strong as hits | growth inhibition, % (concentration not given with the values);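 active means z-score under -3 and OD600 up to 0.15 on both plates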;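 further: plate controls were untreated wells for no effect and antibiotic for full effect; wells of about 80 µL received 100 nL stock; the first replicate is given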
Autofluor counter – compound fluorescence in toxin protease inhibitor counterscreen. compound autofluorescence counterscreen, microsphere flow cytometry; stronger effect = higher value. fluorescence intensity (no concentration beside the values). 360,000 tested, 3.1% active. AID 624483;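 active means at least 3 SD above the mean of all compounds, about 16000 in these data; inconclusive means too few beads counted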;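 further: 100 nL of 1 mM stock went into each well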
BJeLR lethal – MLPCN primary cell-based screen for lethality selective to Ras in HRASV12 cells. AID 1554, 2009. BJeLR (HRASV12) viability, CellTiter-Glo ATP luminescence, 48 h; reference of the scale not given here. inhibition, % (no concentration beside the values). 300,000 tested, 0.17% active;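 active means replicate mean above 50%; inconclusive means above 50% but judged a plate artefact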;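 further: 50 nL library stock added to about 25 µL; numbers are from one replicate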
Mtb hypoxia inh – PubChem AID 1159583. M. tuberculosis hypoxia-regulated fluorescent reporter, fluorescence. fluorescence inhibition, % (test concentration not listed). 300,000 tested, 0.1% active;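 active means 35 to 45% if threefold the growth effect, above 45% if 1.5-fold the growth effect; inactive means the rest, general growth blockers included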;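 further: wells of about 50 µL received 100 nL stock; 0% = vehicle wells and 100% = reference inhibitor wells; whole bacteria with a GFP reporter of the hypoxia response; strong numbers were not always called active; many hits fall short of the cut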
PrP UTR inh – inhibition of PrP 5' UTR reporter expression. inhibition, % (concentration not given with the values). 340,000 tested, 0.35% active. cell-based PrP 5' UTR mRNA reporter, plate reader;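 active means every replicate at 50% or more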;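 further: 0 = median of the neutral control wells; tested in H4 reporter cells; numbers are from one replicate; inactives centre near -14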
Sa RN4220 lethal – growth inhibition of S. aureus RN4220, primary screen, OD600. inhibition, % (concentration not given with the values). 16 h. 330,000 tested, 0.33% active;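 active means z-score of -3 or lower and OD600 up to 0.18 on both plates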;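 further: plate controls were untreated cells for no effect and reference antibiotic for full effect; stock transfer was 100 nL into about 80 µL; one replicate is shown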
Mtb hypoxia inh growth – recorded beside Mtb hypoxia inh, whose call it bears; growth inhibition, %; measured here: M. tuberculosis growth (absorbance);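 0% = vehicle and 100% = reference antibiotic; read after six days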
The depositor's hits bear a star; ? = inconclusive; . = no result given; & = joins results of further samples.

SMILES	Sa ugtP lethal	Autofluor counter	BJeLR lethal	Mtb hypoxia inh	Mtb hypoxia inh growth	PrP UTR inh	Sa RN4220 lethal
CCOc1ccc(Br)cc1S(=O)(=O)Nc1ccc(C(=O)OCC(=O)N(C)c2ccccc2)cc1	39	2518	0	-2	-2	-18	3.3
O=C1CC[C@@H](CN(Cc2ccccc2)Cc2cn[nH]c2-c2cc3ccccc3o2)N1	.	3410	21	.	.	-4	.
COCCSc1ccccc1C(=O)NCC1CCCO1 (stereo unspecified)	8	5605	-8	0	0	-6	-5.3
COCCCNC(=S)NNC(=O)c1ccc(S(=O)(=O)N2CCC(C)CC2)cc1	1	4512	4	-2	8	-21	2.8
C=CCOn1c(=O)c(-c2ccc(C)cc2)[n+]([O-])c2ccccc21	24	3384	5	14	7	-11	2.8
COc1ccc(NC(=O)COc2nc(N(C)C)nc(N(C)C)n2)cc1	12	2590	-18	.	.	-8	7.2
COc1cc(C(C)=O)ccc1OCC(=O)Nc1cc(Cl)ccc1-n1cncn1	3	6723	.	-1	-1	-16	4.8
CC(=NNc1ccc(Cl)c(C(=O)O)c1)c1ccc(Br)s1	16	.	.	-2	1	.	-0.3
COc1ccccc1NC(=O)C(C)OC(=O)CCCN=C1NS(=O)(=O)c2ccccc21 (stereo unspecified)	-3	.	3	0	1	-18	0.3
COc1ccc(CN(C)C(=O)c2cccc(S(=O)(=O)N3CCCc4ccccc43)c2)c(OC)c1OC	1	3533	.	28*	67*	-12	5.7
CN(C)C=NC(=O)/C(C#N)=C1\CCc2ccccc2N1	5	3519	0	.	.	-4	0.8
Cc1c(C(=O)N/N=C/c2cccc(O)c2)nnn1-c1nonc1N	.	5114	7	.	.	-17	.
COc1ccc(NC(=O)CCSc2nc(C)cs2)cc1	2	3139	-5	-1	8	-11	-5.7
O=C(NC1CCS(=O)(=O)C1)c1cccc(Br)c1 (stereo unspecified)	6	?	5	1	-19	-9	-0.5
CCc1cccc(C)c1NC(=O)CN1C(=O)NC(C)(CCC(C)C)C1=O (stereo unspecified)	7	4383	.	13	5	-11	6.0
COc1ccc([C@H]2[C@H](C(C)=O)N3N=Cc4ccccc4C3C23C(=O)OC(C)(C)OC3=O)cc1 (stereo partly specified)	0	2756	5	8	7	-17	3.9
O=C(Cc1ccc([N+](=O)[O-])cc1)Nc1cccc(C(=O)N2CCCC2)c1	3	3842	.	12	0	-16	5.7
Cc1cc(OCC(=O)NNC(=O)c2cnccn2)cc(C)c1Cl	-6	5435	18	-3	13	9	-3.6
COc1ccc(NC(=O)c2ccc3ncsc3c2)cc1	7	4152	-1	8	1	-57	2.1
CCOc1ccc2[nH]c(=O)c(CN(CCCO)S(=O)(=O)c3ccc(F)cc3)cc2c1	6	3696	-14	6	5	-26	4.2
O=C(O)CC1(CC(=O)Nc2ccc(F)cc2F)CCCCC1	6	.	6	-4	7	.	2.3
CCN(CC)C(=O)COc1ccc2oc(C)c(C(=O)OC(C)C)c2c1	-4	7969	0	-2	5	-5	3.5
CC(=O)c1nn(-c2cccc(Br)c2)cc1C(=O)c1cccc2ccccc12	-13	5828	-2	5	9	-10	-2.7
Cc1cccc(NC(=O)C2c3ccccc3Oc3ccccc32)n1	-2	2515	6	17	8	-9	6.9
CCC(C(=O)Nc1ccccc1C(=O)N1CCCC1)N1C(=O)c2ccccc2C1=O (stereo unspecified)	-3	10172	-7	-4	9	-4	0.1
CCCNC(=O)c1nc(C)n(-c2cc(Cl)ccc2Cl)n1	-2	4359	-6	7	3	-26	5.9
COc1cccc(/C=C/C(=O)OCC(=O)NC2CCCCCCC2)c1	3	3880	.	14	7	-18	4.3
Cc1ccc2nc(Nc3nc(CSc4nnnn4-c4ccccc4)cc(=O)[nH]3)nc(C)c2c1	-1	9669	2	7	15	3	2.4
O=[N+]([O-])c1cc(/C=N/O)ccc1SCc1ccccc1	.	22700*	-4	.	.	-12	.
CCN1CCN(C(=O)Cn2ncc3ccsc3c2=O)CC1	0	5749	-3	.	.	-15	-3.2
CCn1c(N2CCN(C(=O)/C=C/c3ccccc3)CC2)nc2ccccc21	-1	2198	-2	-10	-26	-15	-1.8
CC1CCN(S(=O)(=O)c2ccc(NC(=O)[C@@H]3CCCC[C@@H]3C(=O)O)cc2)CC1	6	3973	-7	13	6	-16	6.4
O=C(/C=C/c1cccc([N+](=O)[O-])c1)NCCSCc1cccc(Cl)c1	-17	1941	-4	-4	0	-86	-2.5
O=S(=O)(Nc1ccccc1N1CCCCC1)c1ccccc1	11	4481	-13	14	-5	-13	12
O=C(O)/C=C\c1cccc(-n2nnnc2SCc2ccccc2F)c1	4	3836	10	-13	-6	7	5.6
COc1c(C)cccc1C(=O)Nc1cc(-c2nn3c(C)nnc3s2)ccc1C	2	6321	-9	.	.	5	3.4
COc1ccccc1NC(=S)NCCc1ccccc1	-9	2435	-3	.	.	-19	-1.3
NNC(=S)Nc1cccc(-c2n[nH]c(=S)o2)c1	3	3024	-4	11	-3	-10	8.9
CCOC(=O)c1ccc(NC(=O)Nc2c(C)nn(C)c2C)cc1	-1	10254	-22	2	1	-22	0.0
Cc1cc(C)n(CC2CC(=O)N(c3ccccc3)C2=O)n1 (stereo unspecified)	6	4453	-7	7	4	-1	2.2

Fetched by compound from the entries so far, three records:
SMILES	Sa ugtP lethal	Autofluor counter	BJeLR lethal	Mtb hypoxia inh	Mtb hypoxia inh growth	PrP UTR inh	Sa RN4220 lethal
CCCNC(=O)c1nc(C)n(-c2cc(Cl)ccc2Cl)n1	-2	4359	-6	7	3	-26	5.9
CCN1CCN(C(=O)Cn2ncc3ccsc3c2=O)CC1	0	5749	-3	.	.	-15	-3.2
O=S(=O)(Nc1ccccc1N1CCCCC1)c1ccccc1	11	4481	-13	14	-5	-13	12

Other results follow.
SMILES	Sa ugtP lethal	Autofluor counter	BJeLR lethal	Mtb hypoxia inh	Mtb hypoxia inh growth	PrP UTR inh	Sa RN4220 lethal
CCc1ccc(NC(=O)COc2ccc3c(c2)OCO3)cc1	6	6252	-8	7	2	-5	6.6
C=Cn1cc[n+](CC(=O)c2ccc(C)cc2)c1	13	3176	-5	17	4	2	5.9
OC1CCN(C(c2ccc3ncccc3c2)c2nnnn2C2CCCCC2)CC1 (stereo unspecified)	8	10902	-8	0	3	-1	6.0
CCC(=O)c1ccc(OCC(=O)OC(C)C(=O)N2CCc3ccccc32)cc1 (stereo unspecified)	9	6258	-1	7	-11	-2	-0.7
Cc1cc2nc3n(c2cc1C)CC1CC(C(=O)NCc2cccc(Br)c2)N(C)C31 (stereo unspecified)	-20	3586	3	3	5	-15	-4.4
CCSc1nnc(NC(=O)C2CCCN(S(=O)(=O)c3cnc[nH]3)C2)s1 (stereo unspecified)	8	5530	1	.	.	-14	2.4
O=C(NCCc1ccc(F)cc1)C(=O)NCC1CCCN1S(=O)(=O)c1cccs1 (stereo unspecified)	15	?	-1	-4	-9	4	6.0
CCNC(=S)NNC(=S)NCc1ccccc1	7	2060	-2	10	7	-7	0.7
N#Cc1ccccc1OCC(=O)NC(=O)NCc1ccco1	6	4832	2	-3	-8	-30	-1.8
Cc1ccc(NS(=O)(=O)c2ccc(F)cc2)nc1	4	3173	18	6	1	-16	2.4
Cc1ccc(COc2ccc(CNCCCN3CCCCCC3=O)cc2)cc1	5	4016	2	19	7	-23	-0.4
Cc1ccccc1OCCN1C(=O)NC2(CCCc3ccccc32)C1=O (stereo unspecified)	-4	2821	0	.	.	-9	5.0
Nc1ccc(S(N)(=O)=O)cc1N	.	5331	-13	.	.	-9	.
CN1CC2C3C(=O)N(Cc4ccccc4)C(=O)C3[C@](C)(C1=O)N2C(=O)c1ccc(C(F)(F)F)cc1 (stereo partly specified)	4	.	.	13	11	.	4.8
CCCc1ccc(OCc2ccc(C(=O)Nc3cccc(C)n3)o2)c(OC)c1	-3	2425	-4	-1	-1	-6	1.3
Cc1c(/C(Cc2ccccc2)=N/O)c2ccccc2n1C	.	2456	-3	.	.	14	.
Cc1ccc(/C(N)=N/OC(=O)c2ccc(F)cc2)cc1	0	9985	5	12	8	-68	9.4
CCC(C)Sc1cc(-c2nc3ccccn3c2NC2CCCCC2)ccc1OC (stereo unspecified)	99*	4371&6146	-5	6	-2	-4	100*
O=C1CCC(=O)N(O)CCCCCNC(=O)CCC(=O)N(O)CCCCCNC(=O)CCC(=O)N(O)CCCCCN1	12	5132	12	.	.	-23	7.2
C=CCNC(=O)COC(=O)C=Cc1cccs1	-4	.	.	2	10	.	3.6

4 compounds from above, reduced to BJeLR lethal and Mtb hypoxia inh.
SMILES,BJeLR lethal,Mtb hypoxia inh
Cc1ccccc1OCCN1C(=O)NC2(CCCc3ccccc32)C1=O (stereo unspecified),0,.
Nc1ccc(S(N)(=O)=O)cc1N,-13,.
CN1CC2C3C(=O)N(Cc4ccccc4)C(=O)C3[C@](C)(C1=O)N2C(=O)c1ccc(C(F)(F)F)cc1 (stereo partly specified),.,13
CCCc1ccc(OCc2ccc(C(=O)Nc3cccc(C)n3)o2)c(OC)c1,-4,-1

Other records.
SMILES	Sa ugtP lethal	Autofluor counter	BJeLR lethal	Mtb hypoxia inh	Mtb hypoxia inh growth	PrP UTR inh	Sa RN4220 lethal
Cc1c(/C=N/n2cnnc2)c2ccccc2n1CCOc1ccc(Cl)cc1	.	16355*	-7	.	.	-16	.
CC(=O)N1CCc2cc(S(=O)(=O)NC(C)c3ccccc3)ccc21 (stereo unspecified)	-1	5558	5	6	14	-22	3.7
COC(=O)c1nn(-c2ccccc2)c(Sc2ccc(Cl)cc2)c1C=NO	-3	.	.	11	6	.	-8.6
CCOC(=O)c1sc(=NC(=O)CCSc2ccccc2)n(C)c1C	9	4468	-5	-1	0	-62	13
O=[N+]([O-])c1ccc(CN2CCN(c3ccccc3)CC2)o1	5	4206	8	.	.	-4	3.6
COc1ccc(N2CCN(CC(=O)Nc3ccc(-n4cnnn4)cc3)CC2)cc1	-4	10198	3	3	0	1	3.4
CCOc1ccc(NC(=O)N(C2CCCCC2)C(C)c2ccncc2)cc1 (stereo unspecified)	3	11395	-2	3	1	-27	3.3
COc1cc(C=C(c2nc3ccccc3s2)c2nc3ccccc3s2)ccc1O	47	2915	-8	7	10	-27	-8.9
CCNC(=O)N1CCOCC1	9	7272	-3	5	-1	-3	5.5
CC(C)C[C@@H](CO)N1CCN(CCc2ccccc2)CCC1=O	.	4000	8	.	.	15	.
COCc1cc(Sc2ccc(Cl)cc2)nc(C)n1	6	4911	1	9	-3	-11	1.8
CCOC(=O)c1cc(-c2ccc(/C=C3/C(=O)N(c4ccc(C(=O)O)cc4)N=C3C)o2)ccc1Cl	.	3864	-1	.	.	-27	.
O=C(OCc1nc2ccc(Cl)cc2n1CCO)c1ccc(O)cc1	10	2522	6	1	3	-10	3.8
CN[C@H]1CCc2cc(OC)c(OC)c(OC)c2-c2ccc(N(C)CC(OC)OC)c(=O)cc21	-1	3759	53*	1	0	.	3.4
COC(=O)CNC(=O)COC(=O)/C=C/c1cccs1	9	5536	-2	14	10	-32	4.6
COc1ccc(Cc2nnc(NC(=O)CSc3ccc(C)cc3)s2)cc1OC	-5	2823	0	2	8	-8	4.9

Shown with each value named: part of the list above
CCNC(=S)NNC(=S)NCc1ccccc1
  Sa ugtP lethal = 7	Autofluor counter = 2060	BJeLR lethal = -2	Mtb hypoxia inh = 10	Mtb hypoxia inh growth = 7	PrP UTR inh = -7	Sa RN4220 lethal = 0.7

N#Cc1ccccc1OCC(=O)NC(=O)NCc1ccco1
  Sa ugtP lethal = 6	Autofluor counter = 4832	BJeLR lethal = 2	Mtb hypoxia inh = -3	Mtb hypoxia inh growth = -8	PrP UTR inh = -30	Sa RN4220 lethal = -1.8

Cc1ccc(NS(=O)(=O)c2ccc(F)cc2)nc1
  Sa ugtP lethal = 4	Autofluor counter = 3173	BJeLR lethal = 18	Mtb hypoxia inh = 6	Mtb hypoxia inh growth = 1	PrP UTR inh = -16	Sa RN4220 lethal = 2.4

Cc1ccc(COc2ccc(CNCCCN3CCCCCC3=O)cc2)cc1
  Sa ugtP lethal = 5	Autofluor counter = 4016	BJeLR lethal = 2	Mtb hypoxia inh = 19	Mtb hypoxia inh growth = 7	PrP UTR inh = -23	Sa RN4220 lethal = -0.4
